Source: PubChem
Six1-Eya2 blk = qHTS Assay for Inhibitors of the Six1/Eya2 Interaction | AlphaScreen GST-Six1/His-Eya2 binding, biochemical; active compounds read low; control for the full effect not named in the record | activity change, % (test concentration not listed) | actives 0.56% (n = 360,000) | AID 651725, 2012; in the data active = activity change below about -65%; inconclusive = about -30% to -65%; inactive = above about -30%; also: % is scaled to controls: 0 for no effect and ±100 for the full control effect
Target sequence (O00167 whole entry, looked up): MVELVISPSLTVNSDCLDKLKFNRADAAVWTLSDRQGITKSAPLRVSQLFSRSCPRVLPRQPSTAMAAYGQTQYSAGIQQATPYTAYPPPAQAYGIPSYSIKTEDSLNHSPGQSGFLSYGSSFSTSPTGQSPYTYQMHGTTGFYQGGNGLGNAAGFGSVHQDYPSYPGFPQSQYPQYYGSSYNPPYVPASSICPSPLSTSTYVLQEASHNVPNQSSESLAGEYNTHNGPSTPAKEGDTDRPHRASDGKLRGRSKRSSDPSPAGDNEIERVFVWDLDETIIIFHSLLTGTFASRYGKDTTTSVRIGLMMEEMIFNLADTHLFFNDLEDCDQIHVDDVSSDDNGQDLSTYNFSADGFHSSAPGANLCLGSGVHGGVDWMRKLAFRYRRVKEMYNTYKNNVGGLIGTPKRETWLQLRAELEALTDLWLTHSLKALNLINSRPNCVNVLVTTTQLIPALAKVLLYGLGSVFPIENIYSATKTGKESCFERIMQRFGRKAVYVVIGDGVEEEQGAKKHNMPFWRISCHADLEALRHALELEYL
Target sequence (Q15475 whole entry, looked up): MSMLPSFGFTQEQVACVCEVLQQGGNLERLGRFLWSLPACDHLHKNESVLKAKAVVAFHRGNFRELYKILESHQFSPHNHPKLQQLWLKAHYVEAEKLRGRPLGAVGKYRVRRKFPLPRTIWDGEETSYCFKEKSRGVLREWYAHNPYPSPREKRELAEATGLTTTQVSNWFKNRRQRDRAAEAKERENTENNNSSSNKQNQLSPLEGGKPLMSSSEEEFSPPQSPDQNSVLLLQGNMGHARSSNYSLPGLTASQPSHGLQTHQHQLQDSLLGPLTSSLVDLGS
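AlphaScreen luminescence read after one hour at 37 °C in darkness. Pin-transferred compounds met GST-Six1 and His-Eya2 protein (5X stock 250 nM/500 nM) plus glutathione donor and Ni-chelate acceptor beads (5X, 50 ug/mL).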
TRPV1 PAM = HTS Assay for Compounds that Act as Potentiators of the Vanilloid Receptor 1. actives 0.02% (n = 320,000). TRPV1-expressing cells, Fluo-8 calcium influx, capsaicin EC20 potentiation; host cell line not named in the record; control for the full effect not named in the record. Transient receptor potential cation channel subfamily V member 1 (Homo sapiens), Q8NER1. potentiation, % at 8.33 µM. AID 540277, 2011; active means potentiation above 80%; inconclusive means 30% to 80%; inactive means below 30%; also: 0% is about no effect
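Cells expressing TRPV1 were dye-loaded with Fluo-8 and read kinetically: 10 s baseline, 3 min after compound (agonist portion), then 2 min after EC20 capsaicin (allosteric enhancer portion). Calcium-bound dye fluorescence at 480/520 nm.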
CtBP-E1A blk = qHTS Assay for Inhibitors of the CtBP/E1A Interaction. activity change, % (no concentration beside the values). AID 651724, 2012. AlphaScreen GST-E1A/His-CtBP binding, 1536-well; active compounds read low; control for the full effect not named in the record. actives 0.49% (n = 340,000). CtBP / adenovirus E1A interaction (AlphaScreen); in the data active means activity change below about -65%; inconclusive means about -30% to -65%; inactive means above about -30%; also: % is scaled to controls: 0 for no effect and ±100 for the full control effect
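Steps: dispense buffer (Tris pH 8.0, NaCl 300 mM, TCEP 1 mM, BSA, Tween 20); add 5X protein mix (GST-E1A, His-CtBP, 125 nM each); pin 23 nL compound; 2 h at 37 °C, dark; add 5X beads (50 ug/mL); 1 h; read.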
Sfp inh = qHTS Assay for Inhibitors of Bacillus subtilis Sfp phosphopantetheinyl transferase (PPTase); 4'-phosphopantetheinyl transferase ffp (Bacillus subtilis), Q9F4F7; Biochemical Sfp PPTase activity, qHTS; Potency, µM, for the others: max response, negative = inhibition, hits mostly inhibitors; actives 3.5% (n = 310,000); AID 1490, 2009; active = well fitted inhibition curve with a large enough effect; inconclusive = small, poorly fitted or top-dose-only effect, or another doubt; inactive = no such curve, though single readings can be large or run the other way;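 also: the enzyme is Sfp with the accession as filed and its product quenches rhodamine fluorescence; potency is read from the fitted curve at half-maximal effect; 0% = enzyme reaction without inhibitor and -100% = no enzyme wells; top concentration of the series not given in the record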
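Fluorescence-quenching assay: 15 nM Sfp-PPTase preincubated 15 min at room temperature with compound, then 5 uM rhodamine-CoA and 12.5 uM BHQ-2-labelled YbbR peptide added. Fluorescence (ex 525/em 598 nm) read at start and after 30 min; difference gives rate.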
D2 PAM = Beta-Arrestin HTS for Positive Allosteric Modulators of the Human D2 Dopamine Receptor: Potentiators. D(2) dopamine receptor (Homo sapiens), P14416. DiscoveRx D2 beta-arrestin cells, luminescence, 90 min; 100% = 57 uM dopamine signal. potentiation, % (concentration not given with the values). actives 0.23% (n = 360,000). AID 624464, 2012; active = potentiation of 50% or more; inconclusive = 30% to 50%; inactive = 30% or less;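 also: compound concentration not given in the record; tested on top of an EC20 dose of dopamine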
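PathHunter beta-arrestin assay in DiscoveRx D2 cells. Compounds were added with an EC20 of dopamine (50 nM final) for 90 min at 37 deg C. Luminescence was read 1 h after detection reagent, with 57 uM dopamine as the EC100 control.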
D2 ag = Beta-Arrestin HTS for Positive Allosteric Modulators of the Human D2 Dopamine Receptor: Agonists; D(2) dopamine receptor (Homo sapiens), P14416; actives 0.084% (n = 360,000); DiscoveRx PathHunter D2 beta-arrestin, luminescence, 90 min; 100% = 57 uM dopamine signal; activation, % (test concentration not listed); in the data active = activation above about 40%; inconclusive = about 15% to 40%; inactive = below about 15%; also: compound concentration not given in the record; the text of the record calls up to 30% inactive
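Agonist mode: compounds alone added to overnight-plated D2 PathHunter cells for 90 min at 37 C, with 57 uM final dopamine (EC100) defining full response. Beta-arrestin recruitment detected by chemiluminescent reagent, read after 1 h at ambient temperature.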
PINK1 expr mod = A Quantitative High throughput Screen to Identify Chemical Modulators of PINK1 Expression. AID 624263, 2012. PINK1 immunofluorescence, high-content cytometry, 24 h. Potency, µM (top dose mostly 76.6 µM), inactives show top-dose activation (PINK1 increase), actives largely listed as activators. actives 0.2% (n = 410,000); active = well fitted activation curve with a large enough effect; inconclusive = small, poorly fitted or top-dose-only effect; inactive = flat fitted curve, though single readings scatter; cell line not stated here;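 also: potency is read from the fitted curve at half-maximal effect; % of control where 0% means no effect; nearly all actives have a fitted effect of over 65% in size; a mitochondrial uncoupler was the plate control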
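Measures PINK1 amount and localization on or inside mitochondria by immunofluorescence. Stable cells get compounds at 5 concentrations for 24 hours before fixation and staining; CCCP controls included.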
* = called active by the depositor; ? = inconclusive; / = no result given; [ ] = remark or other dose.

Start of the listing, in advance, nine compounds:
No.	molecule	Six1-Eya2 blk	TRPV1 PAM	CtBP-E1A blk	Sfp inh	D2 PAM	D2 ag	PINK1 expr mod
1	Nc1c(C(=O)N2CCOCC2)oc2ccccc12	9	25	/	11%	-9	-6.6	1.6%
2	CCOC(=O)c1c(NC(=O)COC(=O)c2ccc(Cl)nc2)sc(C)c1C	0	/	0	/	-10	-3.4	0.1%
3	Clc1ccc(OCCCCN2CCc3ccccc3C2)cc1	26	-13	19	-1%	-8	-4.2	?
4	CC1Cc2ccccc2N1C(=O)CCn1cccn1 (stereo not given)	7	-9	/	13%	-10	-4.6	2.3%
5	O=[N+]([O-])c1cc(-c2nnc(-c3ccccc3)o2)ccc1Oc1ccc(Cl)cc1	2	-15	3	22%	-7	3.6	15%
6	COc1ccc(-c2nc3ncccn3c2Nc2ccc3c(c2)OCCO3)cc1	0	-1	/	-13%	14	7.3	0.2%
7	OCc1ncccc1O	-3	-34	/	3%	9	4.5	-0.2%
8	Cc1ccc(S(=O)(=O)/N=C2\CN(C)C(=O)N2C)cc1	24	2	40	18%	4	-3.2	0.4%
9	O=C(Cn1nc(-c2ccccc2)c2ccccc2c1=O)Nc1ccc(F)cc1	21	-6	14	17%	-7	0.8	5.0%

The whole of this part, repeating the preview:
No.	molecule	Six1-Eya2 blk	TRPV1 PAM	CtBP-E1A blk	Sfp inh	D2 PAM	D2 ag	PINK1 expr mod
1	Nc1c(C(=O)N2CCOCC2)oc2ccccc12	9	25	/	11%	-9	-6.6	1.6%
2	CCOC(=O)c1c(NC(=O)COC(=O)c2ccc(Cl)nc2)sc(C)c1C	0	/	0	/	-10	-3.4	0.1%
3	Clc1ccc(OCCCCN2CCc3ccccc3C2)cc1	26	-13	19	-1%	-8	-4.2	?
4	CC1Cc2ccccc2N1C(=O)CCn1cccn1 (stereo not given)	7	-9	/	13%	-10	-4.6	2.3%
5	O=[N+]([O-])c1cc(-c2nnc(-c3ccccc3)o2)ccc1Oc1ccc(Cl)cc1	2	-15	3	22%	-7	3.6	15%
6	COc1ccc(-c2nc3ncccn3c2Nc2ccc3c(c2)OCCO3)cc1	0	-1	/	-13%	14	7.3	0.2%
7	OCc1ncccc1O	-3	-34	/	3%	9	4.5	-0.2%
8	Cc1ccc(S(=O)(=O)/N=C2\CN(C)C(=O)N2C)cc1	24	2	40	18%	4	-3.2	0.4%
9	O=C(Cn1nc(-c2ccccc2)c2ccccc2c1=O)Nc1ccc(F)cc1	21	-6	14	17%	-7	0.8	5.0%
10	O=C(NCCOc1ccccc1)C(=O)NCC1CCCO1 (stereo not given)	6	9	7	-6%	1	10	1.7%
11	Cc1ccc(NC(=O)CCC(=O)OCc2ccc(Br)cc2)cc1	3	-18	9	4%	1	-5.8	-2.1%
12	COc1ccc(-c2[nH]ncc2CNCc2cc(C)n(C)n2)c(F)c1	-1	?	-3	1%	-4	-4.6	1.7%
13	CCOC(=O)c1cc(CC)sc1NC(=O)CC1SC(N)=NC1=O (stereo not given)	-5	0	/	5%	-6	-2.8	-0.1%
14	CC(c1ccccc1)n1cc(C(=O)NCc2cccnc2)nn1 (stereo not given)	-10	2	-10	8%	-17	-2.4	-1.0%
15	COc1ccc(NC(=O)NCc2ccc(Cl)cc2)cc1	5	-11	7	5%	0	-2.8	1.9%
16	CCC1C(=O)NCCN1C(=O)c1cccc(OC2CCN(S(=O)(=O)N(C)C)CC2)c1 (stereo not given)	3	7	3	7%	-4	-0.2	0.7%
17	CNC(=O)COc1ccc(S(=O)(=O)Nc2ccc(C)cc2)cc1	2	9	/	6%	-9	-1.5	-1.3%
18	Cc1cc(-c2nn(-c3ccccc3F)cc2CN2CCN(c3ccncc3)CC2)c(C)s1	4	0	-24	4%	-16	-2.6	-1.4%
19	Cn1cnnc1SCC(=O)NNC(=O)c1ccc([N+](=O)[O-])cc1	-1	/	9	/	5	6.1	3.6%
20	CCN(C(=O)COC(=O)/C=C/c1ccco1)C1CCCCC1	-16	/	8	/	-8	-2.1	-1.1%
21	CC[C@]12c3[nH]c4ccccc4c3CCN1C(=O)C(CC(=O)NC/C=C(\C)CCC=C(C)C)C[C@@H]2C(=O)N1CCN(C(=O)c2ccco2)CC1 (stereo not given in full)	-4	/	-2	/	/	-1.5	6.0%
22	CC(=O)Nc1nonc1NC(=O)CSc1ccccn1	0	4	1	8%	-5	0.8	-0.2%[38.3 µM]
23	COc1ccc(CN2CCC2(C)C(=O)Nc2cccc(NS(C)(=O)=O)c2)c2ccccc12 (stereo not given)	-14	/	-16	/	-2	3.6	0.8%
24	COc1ccc(OC)c(CN2C(=O)CCC2(C)c2nnnn2-c2c(C)cccc2C)c1 (stereo not given)	-1	/	3	/	/	/	0.4%
25	Cc1cc(C)c2[nH]c(=O)c(CN(CC3CCCO3)C(=S)NCc3ccco3)cc2c1 (stereo not given)	6	-1	6	-5%	-7	-3.9	16%
26	Cc1ccc(S(=O)(=O)NCCc2ccccc2)cc1	7	-4	2	5%	-3	-2.3	-0.8%
27	O=C(O)c1ccc(NC(=O)C(c2ccccc2)c2ccccc2)cc1	-4	-9	11	8%	-2	-0.6	1.4%
28	CN(C)CCNC(=O)c1onc(CSc2ccc(F)c(F)c2)c1C(=O)NCCN(C)C	8	?	4	4%	-7	-1.0	1.1%
29	COC(=O)C1=NN(N=O)C2(CC(=O)N(c3cc(C)cc(C)c3)C2=O)C1 (stereo not given)	-3	-9	-12	-23%	-2	-0.3	/
30	O=S(=O)(NCc1ccccn1)c1cc(Cl)ccc1Cl	-5	-15	-6	-11%	2	1.9	1.6%
31	CCN(CC)C(=O)CSc1nnc(-c2cccc(OC)c2)o1	2	-15	1	-3%	1	-0.4	3.2%[38.3 µM]
32	CCCNC(=O)C1(C)CCCN(CC(=O)c2ccccc2OC)C1 (stereo not given)	4	/	3	/	0	-6.5	0.8%
33	CN(C(=O)COC(=O)c1cccs1)c1c(N)n(Cc2ccccc2)c(=O)[nH]c1=O	-1	8	2	/	25	-3.5	-1.2%
34	COc1ccc(NC(=O)Cc2nnc(SCC(=O)NC3CCCCC3C)n2C)cc1 (stereo not given)	3	8	-3	12%	-4	3.0	1.4%
35	O=C(CN1C(=O)COc2ccc(S(=O)(=O)N3CCOCC3)cc21)NCc1ccco1	6	12	12	-3%	7	-0.4	-0.7%
36	COc1ccc(CN2CCOCC2)cc1	11	1	10	4%	-10	-3.0	0.4%
37	COc1ccccc1N1CCN(S(=O)(=O)CCNC(=O)c2cccc(F)c2)CC1	1	11	-22	/	-11	-0.1	5.6%
38	CC(=O)Nc1nc(-c2ccccc2)ns1	0	9	4	11%	3	0.2	-4.8%[38.3 µM]
39	COc1ccccc1CNc1nc(=S)[nH]c2cc(OC)c(OC)cc12	-81*	7	-85*	-7%	-22	6.4	2.3%
40	O=C(c1ccccc1Oc1nnnn1-c1ccccc1)N1CCOCC1	10	-32	-3	12%	9	-0.8	0.7%
41	CC(C)(CNc1ccc(S(=O)(=O)C(F)(F)F)cc1[N+](=O)[O-])N1CCOCC1	-4	-7	-11	11%	3	-3.3	2.0%
42	O=C(N/N=C/c1ccccc1F)NC12CC3CC(CC(C3)C1)C2	-4	-12	-1	1%	-13	5.0	26%
43	O=C1c2ccccc2C(=O)N1CCOc1ccccc1Cl	-18	-1	-17	3%	-31	-3.8	-1.0%
44	COc1cc2c(cc1NC(=O)CSc1nccn1C)oc1ccccc12	?	-7	/	-38%	-5	-1.4	-0.1%
45	CC(CN1CCC(n2nccc2NC(=O)c2ccccc2Cl)CC1)c1ccccc1 (stereo not given)	2	-10	6	10%	2	-1.3	-0.8%
46	CC1Cc2nc(SCC(=O)Nc3ccc4c(c3)OCO4)n(CCc3ccccc3)c(=O)c2S1 (stereo not given)	-6	3	-9	-1%	-3	2.4	-0.2%
47	Cc1ccc(C)c(C2NC(=O)c3ccccc3N2)c1 (stereo not given)	2	17	/	8%	-4	-7.4	6.8%
48	CC(C)CCC1(CCO)C(=O)N=C(N)NC1=O (stereo not given)	6	/	11	/	3	-2.6	0.9%
49	CC(C)(C)NCCC(O)c1cc(C(F)(F)F)nc2c(C(F)(F)F)cccc12 (stereo not given)	13	/	2	/	-7	10	-1.7%
50	O=C(COC(=O)C1CCN(S(=O)(=O)c2cccs2)CC1)c1cc2ccccc2o1	-6	-11	-5	8%	-30	-8.0	1.0%
51	CCC(C)(C(=O)NC1CCCC1)N(Cc1ccco1)C(=O)c1ccccn1 (stereo not given)	-1	-4	0	3%	13	2.4	4.1%[38.3 µM]
52	S=C(NCc1ccco1)N/N=C/c1cccnc1	-1	0	/	4%	-15	-4.0	-1.0%
53	Cc1csc2nc(COC(=O)c3cccc(N(C)C)c3)cc(=O)n12	-14	15	13	/	-18	-2.8	1.0%
54	CC1(C)SC2C(NC(=O)C3(N)CCCCC3)C(=O)N2C1C(=O)O (stereo not given)	-19	/	0	/	-5	0.0	-3.0%
55	Cc1onc(-c2ccccc2Cl)c1C(=O)Nc1cccc2cccnc12	-2	-6	3	-10%	21	0.3	-2.0%
56	COc1ccc(S(=O)(=O)N2CCC[C@H]2C(=O)NCc2ccc(Cl)cc2)cc1	-6	11	/	-1%	-22	-4.9	0.2%
57	CCOc1cc(C(N)=O)cc(Cl)c1OCC	-5	18	/	18%	-14	1.3	-1.2%
